Bioassay records deposited in PubChem by National Center for Advancing Translational Sciences (NCATS).
MARV entry inh: qHTS for inhibitors of binding or entry into cells for Marburg Virus; Marburg virus pseudotyped entry inhibition, cell reporter; control for the full effect not named in the record; about a third of the inactives were read at about 46 µM; Potency, µM (titrated, usually from 37.8 µM), for inactives: at the highest dose activity change, negative = inhibition, actives largely listed as inhibitors; hit rate 1.8% among 300,000; active = well fitted inhibition curve with a large enough effect; inconclusive = small, poorly fitted or top-dose-only effect, or effect the other way; inactive = flat fitted curve, though single readings scatter; tested in HEK293 cells; about a fifth of its hits are not listed in these tables; further: on the % scale 0 is the no-effect control and ±100 the full control effect; luciferase read-out
RE007 growth inh: qHTS Assay for Inhibitors of the HIV-1 protein Vpr; hit rate 0.21% among 360,000; Potency, µM (doses to about 92.2 µM), inactives show at the top dose activity change, negative = less growth; AID 651644, 2012; S. pombe RE007 Vpr strain, BacTiter-Glo ATP luminescence, 24 h; control for the full effect not named in the record; active = well fitted falling curve with a large enough effect; inconclusive = small, poorly fitted or top-dose-only effect; inactive = no such curve, though single readings can be large or run the other way;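 further: on the % scale 0 is the no-effect control and ±100 the full control effect; nearly all actives have a fitted effect of over 50% in size; the assay follows cell death caused by Vpr and the record does not say whether a fall means rescue or toxicity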
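Fission yeast RE007 carrying one integrated HIV-1 vpr copy, seeded at OD 0.01 in PMG+AL medium with 23 nL pinned compound. Grown 24 h at 30 degrees; viability read by BacTiter-Glo luminescence after 5 min.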
NS1 function inh: qHTS Assay for Inhibitors of Influenza NS1 Protein Function; S. cerevisiae slowed by influenza A NS1, growth recovery by OD600; Potency, µM (highest dose often 46.1 µM), for inactives: at the top dose activity, positive = more growth; hit rate 0.4% among 270,000; further: actives are rising curves; nearly all actives have a fitted effect of over 50% in size
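Compounds were scored for reversing the slow growth caused by influenza A NS1 in S. cerevisiae, measured by optical density at 600 nm. Assay medium contained 2% galactose at pH 6.0; NS1-free yeast of the same strain were the positive control.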
2A StopGo: High Throughput Screening for Foot and Mouth Disease Virus Antivirals. hit rate 1.2% among 410,000. human cells with a luciferase reporter of 2A StopGo recoding; control for the full effect not named in the record. Potency, µM (series often up to 57.9 µM), for the others: at the top dose signal change, negative = less light; active = well fitted falling curve with a large enough effect; inconclusive = small, poorly fitted or top-dose-only effect; inactive = no such curve, though single readings can be large or run the other way; tested in HEK293T cells; further: on the % scale 0 is the no-effect control and ±100 the full control effect; nearly all actives have a fitted effect of over 45% in size; luciferase light after 4 h
LASV entry inh: qHTS for Inhibitors of binding or entry into cells for Lassa Virus | AID 540256, 2011 | Potency, µM (series often up to 37.9 µM), for inactives: at the highest dose activity change, negative = inhibition, usual class: inhibitors | hit rate 1.2% among 300,000 | Lassa virus pseudotype entry inhibition, cell reporter; control for the full effect not named in the record; active means well fitted inhibition curve with a large enough effect; inconclusive means small, poorly fitted or top-dose-only effect, or effect the other way; inactive means flat fitted curve, though single readings scatter; tested in HEK293 cells; further: on the % scale 0 is the no-effect control and ±100 the full control effect; nearly all actives have a fitted effect of over 50% in size; luciferase read-out
Cruzain inh Det: qHTS Assay for Promiscuous and Specific Inhibitors of Cruzain (with detergent); hit rate 0.43% among 200,000; Cruzipain (Trypanosoma cruzi), P25779; purified cruzain, Z-FR-AMC fluorescence, 0.01% Triton; Potency, µM, for the others: max response, negative = inhibition, hits mostly inhibitors; active means well fitted curve in the direction sought with a large enough effect; inconclusive means small, poorly fitted or top-dose-only effect, or another doubt; inactive means no such curve, though single readings can be large; an effect the other way counts as inactive or inconclusive;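 further: plate controls were neutral wells for no effect and buffer without enzyme for full effect; nearly all actives have a fitted effect of over 40% in size; top concentration of the series not given in the record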
Target sequence (P25779 123-467 limits assumed): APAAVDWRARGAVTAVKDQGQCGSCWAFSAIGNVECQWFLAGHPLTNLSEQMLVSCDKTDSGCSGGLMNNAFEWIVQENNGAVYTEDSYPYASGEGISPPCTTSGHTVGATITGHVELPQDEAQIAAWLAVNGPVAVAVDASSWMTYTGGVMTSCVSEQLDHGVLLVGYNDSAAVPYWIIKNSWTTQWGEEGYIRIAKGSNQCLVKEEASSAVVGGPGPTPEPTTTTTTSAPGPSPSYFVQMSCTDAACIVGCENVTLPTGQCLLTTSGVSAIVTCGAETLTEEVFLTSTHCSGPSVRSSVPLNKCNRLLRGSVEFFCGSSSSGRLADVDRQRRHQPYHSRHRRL
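Detergent-containing run (0.01% Triton X-100) in acetate buffer pH 5.5 with 5 mM DTT: enzyme at 1.5 nM final, 15 min compound preincubation at room temperature, then 2 uM Z-FR-AMC substrate. Activity taken as 60 s fluorescence increase at 360/450 nm.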
Cruzain noTriton: qHTS Assay for Promiscuous and Specific Inhibitors of Cruzain (without detergent); Potency, µM, inactives show max response, negative = inhibition, hits mostly inhibitors; purified cruzain, Z-FR-AMC fluorescence, no detergent; AID 1476, 2009; hit rate 2.3% among 200,000; Cruzipain (Trypanosoma cruzi), P25779; active means well fitted curve in the direction sought with a large enough effect; inconclusive means small, poorly fitted or top-dose-only effect, or another doubt; inactive means no such curve, though single readings can be large; an effect the other way counts as inactive or inconclusive;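 further: plate controls were enzyme without inhibitor for no effect and buffer without enzyme for full effect; nearly all actives have a fitted effect of over 40% in size; top concentration of the series not given in the record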
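Detergent-free condition (0.00005% Triton X-100) in acetate buffer pH 5.5 with DTT. 1.5 nM enzyme and compound were pre-mixed 15 min, then 2 uM Z-FR-AMC substrate added; reaction progress from fluorescence change between first and third reads (60 s).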
SARS PLpro yeast: qHTS of Yeast-based Assay for SARS-CoV PLP; S. cerevisiae expressing SARS-CoV PLpro, growth rescue; control for the full effect not named in the record; Potency, µM (series often up to 32.9 µM), for the others: at the top dose activity, positive = growth rescue; hit rate 0.19% among 330,000; further: 0% is about no effect; nearly all actives have a fitted effect of over 55% in size; growth read by luminescence after 48 h
An asterisk follows results filed as active; ? = inconclusive; · = no result given; [ ] = remark or other dose. Unless noted, the call rests on the fitted dose curve; in most records, active means well fitted rising curve with a large enough effect; inconclusive means small, poorly fitted or top-dose-only effect; inactive means no such curve, though single readings can be large or run the other way. Potency means the concentration at half of the fitted maximal effect.

cpd	canonical_smiles	Cruzain noTriton	RE007 growth inh	MARV entry inh	LASV entry inh	NS1 function inh	Cruzain inh Det	2A StopGo	SARS PLpro yeast
1	CN1C(=O)C(=Cc2cn(CC#N)c3ccccc23)C(=O)N(C)C1=O	·	-1%	-15%[46.1 µM]	3%[46.1 µM]	1%	·	-13%	0%
2	O=C(CS(=O)(=O)c1c[nH]c2ccccc12)N1CCCc2ccccc21	3%	2%	2%	·	0%	-1.0%	5%	2%
3	CCOc1ccc(NS(=O)(=O)c2cc(NC(=O)CCS(=O)(=O)c3ccc(C)cc3)ccc2OC)cc1	10%	2%	?	-27%	6%	-1.7%	9%	-6%
4	Cc1cc(C=O)c(C)n1-c1ccc(N2CCCCC2)c([N+](=O)[O-])c1	3%	-10%	?	?	-11%	1.5%	?	-7%
5	Cc1cc(C(=S)N2CCOCC2)c(C)n1-c1ccc(F)cc1	·	9%	7%	23%	10%	·	-28%	1%
6	CCOC(=O)N1CCC(NS(=O)(=O)c2ccc(C)c(Cl)c2)CC1	·	28%	-22%[46.1 µM]	-22%	4%	·	-12%	-1%
7	CCOc1ccccc1NC(=O)CSc1ccc(-c2sc(C)nc2C)nn1	·	-5%	?	?	-28%	·	25µM*	-4%
8	O=S(=O)(c1ccc(C2CCCCC2)cc1)N1CCN(c2ncccn2)CC1	-15%	9%	-6%	-22%	-9%	-4.8%	·	0%
9	Cc1cc([N+](=O)[O-])nn1Cc1ccc(C(=O)N/N=C/c2ccc(F)cc2)cc1	·	-4%	?	-1%	4%	·	-12%	-1%
10	COc1ccc(NC(=O)COc2cccc3c2CCN(Cc2cccnc2)C3=O)c(OC)c1	·	-1%	·	·	14%	·	?	0%
11	Cc1cccc(-c2nc(C#N)c(NC3CCCCC3)o2)c1	8%	-14%	?	-6%	-7%	0.1%	18%	-3%
12	CN(C)S(=O)(=O)c1ccc(NC(=O)COc2cccc3c2OC(C)(C)C3)cc1	·	0%	-25%	8%	·	·	-22%	0%
13	CC1CCCC(NC(=O)CCCn2c(=S)[nH]c3ccccc3c2=O)C1C (configuration not stated)	·	5%	4%[46.1 µM]	?	·	·	6%	0%
14	CCOc1ccc(C2CC(c3c(O)n(C)c(=O)n(C)c3=O)=NN2)cc1 (configuration not stated)	·	-4%	0%[14.2 µM]	?	13%	·	?	1%
15	CN(CC(=O)Nc1ccccc1Cl)C(=O)CSc1nncs1	·	2%	6%	14%	·	·	-8%	0%
16	c1ccc(CCNc2ccnc3cc4ccccc4cc23)cc1	·	4%	?	·	·	·	14µM*	0%
17	COc1ccccc1/C=C(/C(=O)OCC(=O)NCc1ccccc1)c1ccccc1	6%	15%	-3%	?	8%	-3.6%	-19%	-1%
18	O=C(COC(=O)c1ccc2c(c1)C(=O)N(Cc1ccncc1)C2=O)Nc1cccc2ccccc12	·	4%	?	29%	8%	·	?	0%
19	CC(NC(=O)c1cccnc1)C(c1cccs1)N1CCN(c2ccccc2F)CC1 (configuration not stated)	·	2%	-30%[46.1 µM]	?	-33%	·	-17%	1%
20	Cc1cc(F)ccc1NC(=O)c1ccc2nc(Cc3ccccc3)oc2c1	-8%	·	·	-21%[46.1 µM]	·	-5.7%	-24%	·
21	CC1(C)CC(=O)C(C=Nc2ccc(O)c(N=CC3=C(O)CC(C)(C)CC3=O)c2)=C(O)C1	·	-9%	?	?	·	·	7%	-2%
22	O=C(Nc1cccc2cccnc12)c1ccccc1[N+](=O)[O-]	6%	·	12%[46.1 µM]	10%[46.1 µM]	·	-0.8%	40%[activator]	·
23	OCCN1CCN(CC(O)COc2ccc(-c3ccccc3)cc2)CC1 (configuration not stated)	0%	-15%	-22%[46.1 µM]	?	-6%	-3.0%	39%[activator]	-4%
24	O=C(CN1C(=O)COc2ccc(Cl)cc21)NC1CC1	·	6%	·	·	-6%	·	-19%	0%
25	COc1ccc(N2CC(C(=O)Nc3nc4ccc(S(C)(=O)=O)cc4s3)CC2=O)cc1 (configuration not stated)	·	4%	?	24%[46.1 µM]	?	·	-2%	12%
26	CCCCn1nc(NC(=O)CC)c2cc3cc(OC)ccc3nc21	·	9%	·	·	-3%	·	10%	6%
27	Cc1c(C(=O)NNS(=O)(=O)c2ccccc2)sc(=S)n1C	-1%	0%	6%	17%	5%	-9.0%	-5%	7%
28	COc1ccc(C(=O)O)cc1S(=O)(=O)Nc1ccc(C)cc1	·	-18%	2%	17%	·	·	-9%	-7%
29	COc1ccccc1-n1nnnc1SCC(=O)N1CCCC1=O	·	1%	10%[46.1 µM]	?	7%	·	-2%	·
30	O=C(O)CSc1ncnc2sc3c(c12)CCC3	-9%	-9%	17%	2%	-5%	-0.6%	-9%	1%
31	O=Cc1c(-c2ccc(F)cc2)nc2ccccn12	·	-28%	10%[46.1 µM]	12%	·	·	39%[activator]	-1%
32	CCCCNCCCOc1cc(Cl)ccc1Cl	1%	10%	-17%	-17%	-6%	5.3%	0%	-8%

Pulled by compound from above (seven):
cpd	canonical_smiles	Cruzain noTriton	RE007 growth inh	MARV entry inh	LASV entry inh	NS1 function inh	Cruzain inh Det	2A StopGo	SARS PLpro yeast
26	CCCCn1nc(NC(=O)CC)c2cc3cc(OC)ccc3nc21	·	9%	·	·	-3%	·	10%	6%
27	Cc1c(C(=O)NNS(=O)(=O)c2ccccc2)sc(=S)n1C	-1%	0%	6%	17%	5%	-9.0%	-5%	7%
28	COc1ccc(C(=O)O)cc1S(=O)(=O)Nc1ccc(C)cc1	·	-18%	2%	17%	·	·	-9%	-7%
30	O=C(O)CSc1ncnc2sc3c(c12)CCC3	-9%	-9%	17%	2%	-5%	-0.6%	-9%	1%
32	CCCCNCCCOc1cc(Cl)ccc1Cl	1%	10%	-17%	-17%	-6%	5.3%	0%	-8%
29	COc1ccccc1-n1nnnc1SCC(=O)N1CCCC1=O	·	1%	10%[46.1 µM]	?	7%	·	-2%	·
25	COc1ccc(N2CC(C(=O)Nc3nc4ccc(S(C)(=O)=O)cc4s3)CC2=O)cc1 (configuration not stated)	·	4%	?	24%[46.1 µM]	?	·	-2%	12%

The list goes on.
cpd	canonical_smiles	Cruzain noTriton	RE007 growth inh	MARV entry inh	LASV entry inh	NS1 function inh	Cruzain inh Det	2A StopGo	SARS PLpro yeast
33	O=C(Nc1ccc(C2CCCCC2)cc1)C1CCN(c2ncccn2)CC1	3%	27%	5%	?	0%	6.7%	13%	-2%
34	N=c1nc2n(cc1F)C1OC(CO)C(O)C1O2 (configuration not stated)	·	-6%	-24%	-21%[46.1 µM]	·	·	-18%	·
35	CCN(CC)CCn1c(=N)n(CC(=O)c2ccc(Br)s2)c2ccccc21	·	-22%	7.1µM*	?	9%	·	-25%	-1%
36	COc1cccc(-n2c(SCC(=O)Nc3cc(C)ccc3C)nc3c(oc4ccccc43)c2=O)c1	-9%	·	?	·	·	-1.0%	-13%	·
37	CN(C)C(=O)Cn1cnc2c(cnn2-c2ccc(F)cc2)c1=O	·	-7%	·	·	-3%	·	-13%	1%
38	Cc1cnc(NC(=O)Cc2ccccc2Cl)s1	·	52%	-2%[46.1 µM]	6%[46.1 µM]	-7%	·	-13%	-6%
39	COc1ccc([C@@H]2[C@@H]3C(=O)N(C(C)(C)C)C(=O)[C@@H]3[C@]3(CC(C)C)C(=O)N(c4ccccc4)C(=O)N23)cc1	·	6%	·	·	-9%	·	19%	-5%
40	CSc1sc(-c2ccnc(=S)[nH]2)c(-c2ccccc2)c1C#N	·	211%	?	20%[46.1 µM]	7%	·	-7%	0%
41	COCCN1C(=O)c2cc(C(=O)Nc3cccc(F)c3)ccc2C1Nc1cccc(F)c1 (configuration not stated)	5%	-3%	-23%	?	0%	0.6%	-3%	-2%
42	O=C(Cn1cc([N+](=O)[O-])cn1)N1CCc2ccccc2C1	·	-8%	·	·	4%	·	-9%	0%
43	COCc1cc(C)nc2sc3c(=O)n(-c4cc(C)ccc4C)nnc3c12	11%	·	6%[46.1 µM]	0%[46.1 µM]	·	2.7%	6%	·
44	Cc1cccc(Nc2nc(N)nc(CCl)n2)c1C	·	-15%	?	?	5%	·	1%	4%
45	O=C(CN1CCN(Cc2ccc3c(c2)OCO3)CC1)Nc1cc(S(=O)(=O)N2CCCC2)ccc1Cl	·	-17%	?	-6%	-1%	·	?	-1%
46	O=C1/C(=C/c2cccs2)SC(=S)N1CC(=O)N1CCCCC1CCO (configuration not stated)	·	-14%	·	·	8%	·	12%	1%
47	COc1ccc(CCNC(=O)c2sc3cc(C)ccc3c2Cl)cc1	-3%	17%	-11%	?	4%	-3.9%	0%	1%
48	Cc1cc(-c2nc3c4c5c(sc4[nH]c(=O)n3n2)CCC5)c(C)o1	?	-1%	0%	18%	9%	-5.8%	-2%	-2%
49	C/C(=N\NC(N)=O)c1cccc(Cl)c1	7%	24%	?	?	·	-5.2%	-14%	-8%
50	Cc1ccc([N+](=O)[O-])cc1NC(=S)NC(=O)CC(C)(C)C	1%	5%	0%	27%[14.3 µM]	-2%	-6.0%	-2%	1%
51	O=S(=O)(c1cc(Cl)ccc1Cl)N1CCN2CCCC2C1 (configuration not stated)	·	-6%	-1%[46.1 µM]	-25%[46.1 µM]	9%	·	4%	4%
52	O=c1[nH]c2ccccc2nc1NCCN1CCOCC1	-1%	31%	6%[46.1 µM]	14%	0%	-8.0%	-7%	-3%
